Bioassay records (PubChem BioAssay)
Autofluor counter = flagged as autofluorescent in microsphere protease counterscreen | 360,000 tested, 3.1% active | AID 624483 | fluorescence intensity (no concentration beside the values) | compound autofluorescence counterscreen, microsphere flow cytometry; active compounds read high;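 active = at least 3 SD above the mean of all compounds, about 16000 in these data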;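 note: 100 nL of 1 mM stock went into each well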
PrP UTR inh = inhibition of PrP 5' UTR reporter expression. cell-based PrP 5' UTR mRNA reporter, plate reader. AID 488862. inhibition, % (no concentration beside the values). 340,000 tested, 0.35% active;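 active = every replicate at 50% or more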;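 note: 0 = median of the neutral control wells; tested in H4 reporter cells; numbers are from one replicate; inactives centre near -14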
Mtb hypoxia inh = inhibitors of hypoxia-regulated fluorescent reporter in Mycobacterium tuberculosis. 300,000 tested, 0.1% active. fluorescence inhibition, % (concentration not given with the values). M. tuberculosis hypoxia-regulated fluorescent reporter, fluorescence. AID 1159583;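 active = 35 to 45% if threefold the growth effect, above 45% if 1.5-fold the growth effect; inactive = the rest, general growth blockers included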;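 note: wells of about 50 µL received 100 nL stock; 0% = vehicle wells and 100% = reference inhibitor wells; whole bacteria with a GFP reporter of the hypoxia response; strong numbers were not always called active; many hits fall short of the cut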
BJeLR viability = kills HRASV12-expressing BJeLR cells | BJeLR (HRASV12) viability, CellTiter-Glo ATP luminescence, 48 h; reference of the scale not given here | 300,000 tested, 0.17% active | inhibition, % (no concentration beside the values) | AID 1554;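 active = replicate mean above 50%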;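 note: 50 nL library stock added to about 25 µL; numbers are from one replicate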
Sa ugtP lethal = kills S. aureus RN4220 lacking UgtP | growth inhibition, % (test concentration not listed) | S. aureus RN4220 ugtP deletion, OD600 growth, 16 h; some inactives read as strong as hits | 330,000 tested, 0.54% active;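 active = z-score under -3 and OD600 up to 0.15 on both plates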;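 note: plate controls were untreated wells for no effect and antibiotic for full effect; wells of about 80 µL received 100 nL stock; the first replicate is given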
RN4220 kill = S. aureus RN4220 growth inhibition | OD600, 16 h | inhibition, % (test concentration not listed) | 330,000 tested, 0.33% active | AID 1259311;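 active = z-score of -3 or lower and OD600 up to 0.18 on both plates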;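 note: plate controls were untreated cells for no effect and reference antibiotic for full effect; stock transfer was 100 nL into about 80 µL; one replicate is shown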
Mtb hypoxia inh growth = further read-out of Mtb hypoxia inh, marked with its call; growth inhibition, %; measured here: M. tuberculosis growth (absorbance);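 0% = vehicle and 100% = reference antibiotic; read after six days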
* = called active by the depositor; nt = no result given. No enrichment for hits; about 4% have a hit in one of these screens.

SMILES	Autofluor counter	PrP UTR inh	Mtb hypoxia inh	Mtb hypoxia inh growth	BJeLR viability	Sa ugtP lethal	RN4220 kill
COc1cc(C2=CN(Cc3ccccc3)CCC2=O)cc(OC)c1OC	3414	-24.0	18.6	9.6	nt	5.9	7.8
CC(=O)N1CCC(=NNS(=O)(=O)c2ccc(C)c([N+](=O)[O-])c2)CC1	10339	-3.5	11.8	13.0	2.6	-0.5	2.6
O=C(NCc1ccco1)C1CC(=O)N(c2ccc(Cl)cc2)C1 (stereo unspecified)	4214	-4.7	2.6	17.0	-1.5	1.5	2.9
CCN(CC)C(=O)c1[nH]cnc1C(=O)Nc1ccc(Cl)cc1	4015	-15.9	11.7	4.3	nt	-3.3	-12.3
CCn1c(SCC(=O)N2CCc3ccccc32)nnc1-c1c[nH]c2ccccc12	3011	-15.8	9.5	14.1	1.7	-4.9	-23.2
CCCCNC(=O)c1ccc2nc(-c3ccco3)c(-c3ccco3)nc2c1	3903	-12.2	11.4	6.6	6.0	3.2	11.9
COc1ccc(C(=O)Nc2ccccc2C(=O)N/N=C/c2ccco2)cc1	2625	-35.0	nt	nt	-0.5	nt	nt
C=CCn1c(-c2ccoc2C)n[nH]c1=S	7858	-16.3	6.7	7.7	-12.8	5.4	1.3
O=[N+]([O-])c1ccc(N2CCN(c3ccc(Cl)nn3)CC2)cc1NC1CC1	8914	-45.6	-1.1	1.3	-14.6	-3.1	1.9
COc1cccc(CNC(=O)Cc2nc3nc(C)cc(C)n3n2)c1	2497	-57.8	5.8	3.8	-0.4	2.9	8.2
NC(=O)C1CCN(C(=O)CN2C(=O)c3ccccc3S2(=O)=O)CC1	11758	-28.4	1.8	1.9	-16.0	7.9	13.1
S=C(NCCCc1ccccc1)Nc1ccccc1	6434	-8.4	6.3	6.4	nt	-6.3	3.4

Arranged by SMILES length (largest number first): six of the compounds above
SMILES	Autofluor counter	PrP UTR inh	Mtb hypoxia inh	Mtb hypoxia inh growth	BJeLR viability	Sa ugtP lethal	RN4220 kill
CC(=O)N1CCC(=NNS(=O)(=O)c2ccc(C)c([N+](=O)[O-])c2)CC1	10339	-3.5	11.8	13.0	2.6	-0.5	2.6
CCn1c(SCC(=O)N2CCc3ccccc32)nnc1-c1c[nH]c2ccccc12	3011	-15.8	9.5	14.1	1.7	-4.9	-23.2
NC(=O)C1CCN(C(=O)CN2C(=O)c3ccccc3S2(=O)=O)CC1	11758	-28.4	1.8	1.9	-16.0	7.9	13.1
COc1cc(C2=CN(Cc3ccccc3)CCC2=O)cc(OC)c1OC	3414	-24.0	18.6	9.6	nt	5.9	7.8
COc1cccc(CNC(=O)Cc2nc3nc(C)cc(C)n3n2)c1	2497	-57.8	5.8	3.8	-0.4	2.9	8.2
C=CCn1c(-c2ccoc2C)n[nH]c1=S	7858	-16.3	6.7	7.7	-12.8	5.4	1.3

Carrying on.
SMILES	Autofluor counter	PrP UTR inh	Mtb hypoxia inh	Mtb hypoxia inh growth	BJeLR viability	Sa ugtP lethal	RN4220 kill
COCCCNC(=O)COc1ccc(-c2nccc(-c3ccccn3)n2)cc1	2891	-5.2	nt	nt	-3.7	-6.6	-3.9
COc1ccc(CNC(C)C23CC4CC(CC(C4)C2)C3)c(OC)c1OC (stereo unspecified)	2849	-12.9	-2.7	-5.8	-14.9	8.5	4.0
O=C(CSc1ccc([N+](=O)[O-])cn1)Nc1ccccc1N1CCOCC1	4906	-13.1	9.5	-5.8	-2.1	-4.0	-1.9
c1cncc(CNC2CCCc3ccccc32)c1 (stereo unspecified)	4476	-4.3	6.8	10.9	5.7	10.5	5.8
Cc1nc(SCC(=O)NC2CCCCC2)[nH]c(=O)c1C	5504	-21.2	nt	nt	9.5	11.2	3.2
O=C(CCc1ccccc1)NNC(=O)c1ccccc1F	4190	-7.9	15.4	-3.0	10.0	1.0	1.3
CCc1nc2ccccc2c(=O)n1NC(=O)c1c(O)c2cccc3c2n(c1=O)CCC3	3153	-31.1	12.6	8.0	-0.1	-3.9	18.4
C[C@H](NC(=O)c1nc[nH]c1C(=O)NCc1ccc(CNC(=O)OC(C)(C)C)cc1)C(=O)OC(C)(C)C	4303	-23.8	nt	nt	4.9	nt	nt
N#CC1=C(N)OC2=C(C(=O)CCC2)C1c1ccc2c(c1)OCO2 (stereo unspecified)	4036	-18.3	3.6	2.5	-1.3	2.2	2.9
OCCN1C2=NCCCN2c2ccccc21	4060	-10.8	8.7	11.9	3.6	7.2	4.2
Cc1noc(NC(=O)c2cccc(Cl)c2Cl)c1C#N	4362	5.7	-0.4	8.5	-8.7	2.6	23.3
COc1ccccc1S(=O)(=O)Cc1ccc(C(=O)N2CCOCC2)o1	5050	-5.0	nt	nt	-4.3	6.9	4.1
CC1CC(C)CN(S(=O)(=O)c2cccc3cccnc23)C1 (stereo unspecified)	5921	-26.6	nt	nt	1.6	4.3	7.3
COc1ccc(/C=C2/C(=O)ON=C2c2ccccc2)cc1OC	3532	-12.3	nt	nt	20.0	8.3	2.3
NNC(=S)Nc1ccc(S(=O)(=O)N2CCOCC2)cc1	4816	-9.8	5.1	-2.2	0.0	1.6	6.3
Cc1nn(C)c(C)c1S(=O)(=O)N1CCCC(C(=O)N2CCN(c3ccccc3)CC2)C1 (stereo unspecified)	5558	-10.7	4.6	12.7	15.6	-4.6	-8.2
COc1ccc(C(C(=O)NC2CCCC2)N(C(=O)c2ccco2)c2cc3c(cc2C(C)=O)OCO3)cc1OC (stereo unspecified)	4337	-11.5	6.8	2.9	-13.0	8.3	7.6
O=C(O)CCCCCN1C(=O)C(O)=C(C(=O)C=Cc2ccccc2)C1c1cccc([N+](=O)[O-])c1 (stereo unspecified)	nt	nt	-0.7	-2.5	nt	-3.6	3.2
CCN(CC)CCN1C(=O)c2cccc3cc(N)cc(c23)C1=O	2737	nt	1.9	-6.8	6.7	-2.0	1.9
COc1ccc(N2CCN(c3nc4cc(C)ccc4cc3C=O)CC2)cc1	5914	-10.3	14.3	1.1	-2.9	22.1	12.1
O=S(=O)(c1cc(-c2nnc(-c3ccc(Br)cc3)o2)ccc1Br)N1CCCCCC1	3776	-10.3	nt	nt	-5.3	-0.4	6.2
Cn1c(=O)nc2n(Cc3ccccc3)c3ccccc3cc-2c1=O	3886	-4.0	9.3	7.0	-3.9	-3.2	5.3
Nc1ccc(-c2nc3cc([N+](=O)[O-])ccc3o2)cc1	3915	-84.3	6.7	1.6	3.9	-4.8	1.1
O=C(NCC(=O)N(c1ccccc1F)C(C(=O)NC1CCCC1)c1cccnc1)c1ccco1 (stereo unspecified)	4043	-25.6	0.0	-0.8	-1.1	3.1	1.9
CCOc1ccc2oc(-c3ccccc3)c(C(=O)O)c2c1	4320	-7.4	nt	nt	3.5	3.8	5.7
CCc1cccc(C)c1NC(=O)COC(=O)CNS(=O)(=O)/C=C/c1ccccc1	9444	-14.5	5.7	7.0	-5.1	11.8	2.7
Cc1cc(Br)ccc1OCCN1CC(C)OC(C)C1 (stereo unspecified)	3203	-10.5	11.2	10.3	15.8	5.4	9.6
O=C(COc1ccc2cc(-c3ccccc3)c(=O)oc2c1)NCC1CCC(C(=O)O)CC1 (stereo unspecified)	4078	-7.0	nt	nt	2.3	-4.5	-2.0
COc1ccc(-c2cc(C(=O)NCCCn3ccnc3)no2)cc1OC	3365	0.9	-94.0	20.0	3.8	4.6	2.7
CCCCC(CC)CNC(=O)CCS(=O)(=O)c1cccc2nonc12 (stereo unspecified)	4139	-8.4	13.4	7.2	3.9	-2.5	-1.9
O=C(NC1CC1)C1CCN(c2ccc(S(=O)(=O)N3CCOCC3)cc2)CC1	10110	-28.7	-10.7	0.9	-0.4	-7.7	-3.6
CCCCn1c(N)c(N(CC)C(=O)c2cccc(F)c2)c(=O)[nH]c1=O	4006	-12.7	-11.5	-5.8	0.8	3.7	2.3
CCCCNC(=O)c1nn2c(C(F)(F)F)cc(-c3ccccc3)nc2c1Br	nt	-7.8	-2.2	-0.5	-1.1	12.8	10.3
CC(=O)c1cc(CN2CCN(CCc3ccccc3)C(CCO)C2)cs1 (stereo unspecified)	4730	-9.2	12.5	5.2	3.1	4.1	3.1
COc1cc(/C=C/C(=O)Nc2cccc(S(=O)(=O)N3CCOCC3)c2)ccc1OCC#N	2805	-6.7	8.4	-1.2	nt	-0.5	4.5
CC(C)n1nc(C(=O)Oc2cccc(Cl)c2Cl)c2ccccc2c1=O	2446	-16.0	-5.4	10.5	0.9	0.3	-1.9
O=C(OCc1ccc([N+](=O)[O-])cc1)c1ccc(N2CCCC2)c([N+](=O)[O-])c1	2333	-44.4	3.0	1.0	5.0	1.9	2.3
COc1cccc(/C=C/C(=O)OCC(=O)c2ccc3c(c2)NC(=O)CO3)c1	6320	16.6	1.8	3.0	nt	-10.0	1.9
CC1CN(C(C)CO)C(=O)c2cccc(NC(=O)C3CC3)c2OC1CN(C)Cc1ccncc1 (stereo unspecified)	nt	nt	13.7	3.1	nt	-3.4	2.1
Cc1ccc(NS(=O)(=O)c2ccc(C(=O)N3CCN(c4ncccn4)CC3)cc2)cc1	4787	-12.2	-9.9	-0.3	15.1	-2.0	2.3
CCOc1ccc(NC(=O)CCC(=O)NNC(=O)c2ccccc2Cl)cc1	5027	-16.8	-0.5	5.9	nt	1.9	-1.3
COc1ccc(C(=O)Nc2nc(-c3ccccc3)c(C(C)=O)s2)c(OC)c1	4207	-32.9	13.7	-0.5	7.4	-19.2	14.1
O=C(NCC1CCCO1)C(c1cccs1)N(Cc1cccs1)C(=O)c1ccc(-c2ccccc2)[nH]1 (stereo unspecified)	2326	-10.4	4.7	4.0	9.7	-16.9	-4.0
CCCOc1ccc(/C(O)=C2/C(=O)C(=O)N(CCN3CCOCC3)C2c2ccccc2)cc1 (stereo unspecified)	5414	-19.8	-10.2	3.9	nt	-7.5	-3.7
COc1ccc(N2CCN(C(=O)c3cccnc3)CC2)c([N+](=O)[O-])c1	3962	-5.9	nt	nt	2.0	nt	nt
CC(O)c1nc2ccccc2n1Cc1nnc(-c2ccc(Cl)cc2)o1 (stereo unspecified)	4457	-55.7	6.1	12.3	-6.9	-12.3	9.8
O=C(CC1SC(N2CCOCC2)=NC1=O)Nc1cc([N+](=O)[O-])ccc1Cl (stereo unspecified)	3216	-16.4	9.2	-4.0	-6.6	2.8	6.6
C=CCn1c(SCC(=O)NNC(=S)Nc2ccccc2)nnc1-c1ccccc1	4158	-15.6	4.3	8.5	-5.0	4.5	0.1

Single records, from the list above. Screens in order: Autofluor counter | PrP UTR inh | Mtb hypoxia inh | Mtb hypoxia inh growth | BJeLR viability | Sa ugtP lethal | RN4220 kill
Record of `CCOc1ccc(NC(=O)CCC(=O)NNC(=O)c2ccccc2Cl)cc1` = 5027 | -16.8 | -0.5 | 5.9 | nt | 1.9 | -1.3
Record of `CC1CN(C(C)CO)C(=O)c2cccc(NC(=O)C3CC3)c2OC1CN(C)Cc1ccncc1` (stereo unspecified) = nt | nt | 13.7 | 3.1 | nt | -3.4 | 2.1

Remaining list, next part.
SMILES	Autofluor counter	PrP UTR inh	Mtb hypoxia inh	Mtb hypoxia inh growth	BJeLR viability	Sa ugtP lethal	RN4220 kill
COc1ccccc1-c1cnn2c(NCc3ccccc3)cc(C)nc12	3967	-0.6	5.0	-6.3	6.1	3.5	-0.2
COC(C)(C)CCCC(C)C/C=C/C(C)=C/C(=O)OC(C)C (stereo unspecified)	5504	-13.7	1.8	1.0	nt	47.9	-3.2
CCOc1ccc(N(CC(=O)N/N=C(\C)c2cccc(NC(C)=O)c2)S(=O)(=O)c2ccccc2)cc1	4029	-38.4	nt	nt	3.3	nt	nt
CCOC(=O)/C=C1\SCC(=O)N1CC(=O)N1CCOCC1	3272	-17.1	4.5	4.6	-16.6	0.5	1.8
C/C(N)=C(/C#N)C(=O)COC(=O)c1ccc(C#N)cc1	3150	-12.2	13.1	1.1	7.7	7.3	8.9
CCOc1ccc2[nH]c(C)c(CN3CCOCC3)c(=O)c2c1	5623	-21.7	-1.8	-1.5	-13.9	-3.9	-3.8
CN1CC[C@]23c4ccccc4NC1[C@]21CCN(C)C3Nc2ccccc21	nt	nt	6.5	1.2	nt	1.7	10.0
COc1cc(C=NNC(=O)c2cccnc2)ccc1OS(=O)(=O)c1cc(C)ccc1C	nt	nt	12.2	3.2	nt	8.3	8.1
CN(Cc1cn(-c2ccccc2)nc1-c1cc2ccccc2o1)C(=O)CCC(=O)O	4820	4.1	7.5	8.6	9.9	4.7	7.9
O=C(NC(Cc1ccc(O)cc1)C(=O)O)c1ccco1 (stereo unspecified)	3776	-4.3	15.6	1.1	7.5	4.7	7.2
